CtBP-E1A inh: qHTS Assay for Inhibitors of the CtBP/E1A Interaction; CtBP / adenovirus E1A interaction (AlphaScreen); AlphaScreen GST-E1A/His-CtBP binding, 1536-well; stronger effect = lower value; control for the full effect not named in the record; activity change, % (concentration not given with the values); 0.49% of 340,000 active; AID 651724, 2012; in the data active means activity change below about -65%; inconclusive means about -30% to -65%; inactive means above about -30%; note: % is set by controls: 0 for no effect and ±100 for the full control effect
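Steps: dispense buffer (Tris pH 8.0, NaCl 300 mM, TCEP 1 mM, BSA, Tween 20); add 5X protein mix (GST-E1A, His-CtBP, 125 nM each); pin 23 nL compound; 2 h at 37 °C, dark; add 5X beads (50 ug/mL); 1 h; read.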
TRPML1 agonist: qHTS for Agonists of the Human Mucolipin Transient Receptor Potential 1 (TRPML1); TRPML1-expressing cells, Ca2+ dye fluorescence, FDSS; host cell line not named in the record; reference of the full effect not given here; AID 624414, 2012; 0.12% of 410,000 active; activation, % (no concentration beside the values); in the data active = activation above about 50%; inconclusive = about 30% to 50%; inactive = below about 30%; note: 0% is about no effect; the text of the record puts the active cut at 80%
Target sequence (Q9GZU1 whole entry, looked up): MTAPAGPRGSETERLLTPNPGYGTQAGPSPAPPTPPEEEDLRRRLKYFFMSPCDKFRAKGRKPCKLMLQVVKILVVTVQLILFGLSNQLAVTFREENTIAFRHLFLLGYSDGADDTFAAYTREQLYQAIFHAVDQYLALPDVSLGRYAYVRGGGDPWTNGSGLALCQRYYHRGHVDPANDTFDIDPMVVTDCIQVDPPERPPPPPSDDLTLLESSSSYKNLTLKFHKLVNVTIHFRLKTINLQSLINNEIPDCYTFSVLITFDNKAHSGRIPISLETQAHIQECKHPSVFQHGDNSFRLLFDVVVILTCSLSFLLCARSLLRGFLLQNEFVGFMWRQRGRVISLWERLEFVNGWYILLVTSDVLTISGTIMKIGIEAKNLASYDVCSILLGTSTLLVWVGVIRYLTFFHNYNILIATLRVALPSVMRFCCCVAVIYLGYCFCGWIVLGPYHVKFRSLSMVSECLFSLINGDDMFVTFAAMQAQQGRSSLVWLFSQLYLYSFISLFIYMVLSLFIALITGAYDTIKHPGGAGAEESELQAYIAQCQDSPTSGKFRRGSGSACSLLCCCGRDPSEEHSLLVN
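Tetracycline-induced TRPML1-DL cells are seeded and incubated overnight before loading with a no-wash Ca2+ dye and quencher. Agonist activity is taken from the 110 s fluorescence read following compound pin-transfer on an FDSS, before EC80 54-4 challenge.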
D2 potentiator: Beta-Arrestin HTS for Positive Allosteric Modulators of the Human D2 Dopamine Receptor: Potentiators; potentiation, % (test concentration not listed); D(2) dopamine receptor (Homo sapiens), P14416; DiscoveRx D2 beta-arrestin cells, luminescence, 90 min; 100% = 57 uM dopamine signal; 0.23% of 360,000 active; AID 624464, 2012; active = potentiation of 50% or more; inconclusive = 30% to 50%; inactive = 30% or less;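 note: compound concentration not given in the record; tested on top of an EC20 dose of dopamine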
Target sequence (P14416 whole entry, looked up): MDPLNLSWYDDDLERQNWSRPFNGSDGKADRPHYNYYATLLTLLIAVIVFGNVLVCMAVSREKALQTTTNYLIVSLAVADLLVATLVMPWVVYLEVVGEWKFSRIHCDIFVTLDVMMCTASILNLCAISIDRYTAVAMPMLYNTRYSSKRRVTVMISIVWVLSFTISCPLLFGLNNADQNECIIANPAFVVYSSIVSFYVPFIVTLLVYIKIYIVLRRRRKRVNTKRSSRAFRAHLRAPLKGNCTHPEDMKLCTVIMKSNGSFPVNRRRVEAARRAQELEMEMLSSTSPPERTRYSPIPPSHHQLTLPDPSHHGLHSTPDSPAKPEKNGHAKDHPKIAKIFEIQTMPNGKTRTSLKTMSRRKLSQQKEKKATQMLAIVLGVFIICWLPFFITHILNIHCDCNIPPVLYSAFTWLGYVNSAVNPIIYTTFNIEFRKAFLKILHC
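PathHunter beta-arrestin assay in DiscoveRx D2 cells. Compounds were added with an EC20 of dopamine (50 nM final) for 90 min at 37 deg C. Luminescence was read 1 h after detection reagent, with 57 uM dopamine as the EC100 control.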
D2 agonist: Beta-Arrestin HTS for Positive Allosteric Modulators of the Human D2 Dopamine Receptor: Agonists. DiscoveRx PathHunter D2 beta-arrestin, luminescence, 90 min; 100% = 57 uM dopamine signal. 0.084% of 360,000 active. activation, % (concentration not given with the values); in the data active = activation above about 40%; inconclusive = about 15% to 40%; inactive = below about 15%; note: compound concentration not given in the record; the text of the record calls up to 30% inactive
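DiscoveRx PathHunter D2 beta-arrestin cells (2,100/well) attached overnight, then compound-stimulated 90 min at 37 C in HBSS/10 mM HEPES/0.1% Tween-20 buffer; beta-galactosidase complementation read by luminescence after 1 h at ambient temperature. Dopamine 57 uM final (EC100) as control.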
PINK1 expr mod: A Quantitative High throughput Screen to Identify Chemical Modulators of PINK1 Expression; Potency, µM (titrated, usually from 76.6 µM), inactives show top-dose activation (PINK1 increase), hits mostly activators; 0.2% of 410,000 active; AID 624263, 2012; PINK1 immunofluorescence, high-content cytometry, 24 h; active = well fitted activation curve with a large enough effect; inconclusive = small, poorly fitted or top-dose-only effect; inactive = flat fitted curve, though single readings scatter; cell line not stated here;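 note: potency is the fitted concentration of half-maximal effect; % of control where 0% means no effect; nearly all actives have a fitted effect of over 65% in size; a mitochondrial uncoupler was the plate control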
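A stable cell line was treated with compounds at 5 concentrations for 24 hours, with CCCP as control. PINK1 levels and mitochondrial localization were measured by immunofluorescence with mitochondrial, cell and nuclear markers after fixation, read by laser-scanning cytometry.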
Six1-Eya2 blk: qHTS Assay for Inhibitors of the Six1/Eya2 Interaction; 0.56% of 360,000 active; activity change, % (test concentration not listed); AlphaScreen GST-Six1/His-Eya2 binding, biochemical; stronger effect = lower value; control for the full effect not named in the record; Homeobox protein SIX1 (Homo sapiens) + Protein phosphatase EYA2 (Homo sapiens), …; in the data active = activity change below about -65%; inconclusive = about -30% to -65%; inactive = above about -30%; note: % is set by controls: 0 for no effect and ±100 for the full control effect; compound concentration not given in the record
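Compounds are tested against tagged Six1 and Eya2 proteins bridged by glutathione donor and nickel acceptor beads; after a one-hour incubation at 37 °C without light, AlphaScreen emission is recorded.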
Active calls of the source: *; ? = inconclusive; . = not tested or not shown; & = joins results of further samples; [ ] = dose if it differs, or a comment.

SMILES | CtBP-E1A inh | TRPML1 agonist | D2 potentiator | D2 agonist | PINK1 expr mod | Six1-Eya2 blk
O=C(NCc1ccccc1)C1CCCN1S(=O)(=O)c1ccc(F)cc1 (stereo not given) | -81* | 0.5 | -6 | -2.8 | 0.5% | 0
Cc1ccc(NC(=O)Cn2sc3ccccc3c2=O)cc1 | 2 | 2.1 | -21 | -5.6 | -1.7% | 2
Cn1c(N)c(C#N)c(-c2ccccc2)c(C#N)c1=O | -5 | 0.1 | -7 | -5.1 | 2.7% | -13
NCCSc1c(-c2ccc(F)cc2)[nH]c2ccccc12 | -1 | 2.7 | -19 | -2.3 | 1.4% | -6
CC(=O)Oc1c(S(=O)(=O)c2ccccc2)c(C)nn1C(C)(C)C | 10 | 0.1 | 12 | -2.1 | -2.1% | 12
COc1cc(NC(=O)c2ccccc2)c(OC)cc1NC(=O)CN1C(=O)N(C)C2(CCCCC2)C1=O | -7 | 1.4 | 25 | 8.6 | 2.8% | -6
O=S(=O)(NCC1CCCO1)c1ccc(S(=O)(=O)N2CCCC2)cc1 (stereo not given) | 11 | -0.5 | -10 | -1.2 | -1.5%[38.3 µM] | 2
CCN(CC)c1ccc(S(=O)(=O)N2CCOCC2)cc1NC(=O)CNCc1cccc(Cl)c1 | -3 | 2.0 | -1 | -1.3 | 2.1% | -4
COc1cccc(NC(=O)c2ccc3snnc3c2)c1 | -5 | 0.5 | -3 | -2.1 | 0.0% | -21
COc1ccc(-n2c(=O)[nH]cc(C(=O)Nc3ccc4c(c3)OCCO4)c2=O)cc1OC | 8 | 0.8 | -1 | -6.3 | -3.4% | -1
O=C(Nn1cnc2ccccc2c1=O)c1ccccc1F | 5 | . | 2 | -6.8 | 0.2% | -1
COc1ccc(CN(Cc2ccccn2)C(=O)CN2C(=O)C(C)Oc3ccccc32)cc1 (stereo not given) | 6 | 0.4 | 5 | 1.2 | -1.5%[38.3 µM] | -2
CN(CCc1ccccc1)c1cc2c(c3c1ccn3C)C1CCC2C1 (stereo not given) | ? | 0.0 | -2 | 4.4 | 7.5% | ?
COc1ccc(-c2ncncc2-c2csc(C)n2)c(O)c1 | -3 | 0.9 | -4 | -3.6 | -2.4% | 10
CC(C)CCNc1nc(N2CCCC2)c2c(c1C#N)CCN(C)C2 | -13 | 0.6 | -31 | -5.5 | 2.0% | -30
CCN(CC)CC(C)CNC(=O)C1(O)c2ccccc2NC(=O)N1c1ccc(Cl)c(Cl)c1 (stereo not given) | 4 | 1.7 | -4 | 7.6 | -2.9% | 5
CCOc1cc(/C=N/NC(=O)C(=O)NC2CC2)cc(Br)c1O | 1 | 3.5 | 5 | -3.1 | 2.6% | -2
O=C(CSc1ccc(-c2ccco2)nn1)NCc1ccccc1 | -1 | 1.0 | -28 | -3.0 | -1.4% | -5
COc1cc(COc2ccc(-c3nnco3)cc2)ccc1OC(F)F | 11 | 1.1 | -5 | 0.2 | 11% | 7
COc1ccc2cc(Br)ccc2c1CC(=O)NC(C)C | -18 | 0.6 | -8 | -2.6 | 3.7% | 12
COc1cc([N+](=O)[O-])cc(/C=N/NC(=O)c2cccnc2)c1O | -92* | -0.5 | -14 | -5.9 | 0.4% | -90*
CC(C(=O)NC1CCCc2ccccc21)N1C(=O)C2CCCCC2C1=O (stereo not given) | 7 | 2.3 | 0 | 1.0 | 0.4% | 2
O=C(Nc1ccc(Cl)cc1)NN1CC(=O)N(c2cccc(C(F)(F)F)c2)CC1=O | 7 | 1.1 | 3 | 2.7 | -1.0% | 7
O=C(CSc1nc(-c2ccccc2)cc(C(F)(F)F)n1)N1CCOCC1 | 4 | 0.3 | -20 | -2.0 | 2.3% | 1
Cc1ccc(CNC(=O)/C=C/c2ccc(S(=O)(=O)NCc3ccco3)cc2)cc1 | -10 | -0.5 | -7 | -4.6 | 4.0% | -10
The results go on.
SMILES | CtBP-E1A inh | TRPML1 agonist | D2 potentiator | D2 agonist | PINK1 expr mod | Six1-Eya2 blk
O=c1c2ccccc2sc2nc(CCl)nn12 | 3 | 0.4 | -2 | -1.1 | -1.1% | -4
O=C(CNC(=O)c1ccc2c(c1)OCO2)N/N=C/c1cccc([N+](=O)[O-])c1 | . | 0.8 | -1 | -1.4 | 1.3% | -1
CCOc1ccc(NC(=O)CNC(=O)c2cn(-c3ccccc3OC)c(=O)c3ccccc23)cc1 | -5 | 0.0 | -6 | 0.7 | -2.4% | -1
Cn1nc(C(=O)N2CCN(c3ccccc3)CC2)c2c1-c1ccccc1S(=O)(=O)C2 | -10 | 0.2&-0.2 | 5 | -1.7 | -0.1%&1.8% | 0
O=C(NC1CCN(Cc2ccccc2)CC1)c1ccc2c(c1)OCCCO2 | . | -0.4 | -30 | -3.8 | 1.8% | 9
Cc1cccc(-n2ncc3c(NCCc4ccc(S(N)(=O)=O)cc4)ncnc32)c1 | -5 | -0.8 | -7 | -0.2 | 3.9% | -6
O=C(NCC(=O)N(c1ccccc1)C(C(=O)NC1CCCCC1)c1cccnc1)c1cccs1 (stereo not given) | 4 | 0.0 | -2 | 2.5 | 5.1% | 0
O=C(CC1C(=O)NCCN1Cc1cccc(F)c1)NC1CCC1 (stereo not given) | -7 | 0.4 | -18 | -5.4 | -1.3% | -6
Cc1[nH]c2ccccc2c1/C=N/NC(=O)c1cccc(S(=O)(=O)Nc2cccc(C(F)(F)F)c2)c1 | . | 1.1 | -9 | -9.0 | 0.7% | 3
Cc1cc(C)n(-c2ccc(C(=O)NC(C)C)cc2)n1 | -26 | -0.1 | -5 | -0.7 | ? | -3
COc1cc(O)c(C(CC(=O)N2CCCCC2)c2ccc(N(C)C)cc2)c(OC)c1 (stereo not given) | -20 | -0.1&0.3 | -2 | 0.7 | -0.9% | -29
O=C1CC(c2cccc(F)c2)C2=C(CCCC2=O)N1 (stereo not given) | 7 | 0.0 | -8 | -3.4 | 2.9% | 5
O=C1OC/C(=C(/O)c2ccc(Cl)cc2)C1=O | . | -0.3 | -19 | 2.7 | -1.0% | 8
O=c1[nH]c(CN2CCN(c3ccccc3O)CC2)nc2ccccc12 | -5 | 0.8 | -17 | -1.0 | 0.7% | -4
Oc1ccc2c(c1)c1ccccc1c1ncccc21 | ? | -0.3 | -11 | 1.4 | 2.5% | ?
O=C(O)c1ccc(-c2ccccc2C(F)(F)F)o1 | 4 | 0.4 | -7 | 0.1 | ? | 3
O=C(COC(=O)Cc1c(F)cccc1Cl)NC(=O)Nc1ccccc1F | -4 | 3.9 | 0 | 2.9 | 8.9% | 7
COc1cccc(CN2CCN(C(=O)C3CCC(=O)N(C4CCCC4)C3)CC2)c1 (stereo not given) | 12 | -0.7 | -5 | -4.0 | 0.5% | 4
O=[N+]([O-])c1ccc(NCCCNS(=O)(=O)c2ccc(Cl)cc2)c(Cl)c1 | 0 | 0.6 | -2 | 2.4 | -0.6% | -12
C/C(Cn1cnc([N+](=O)[O-])n1)=N\NC(=O)c1ccc(Br)cc1 | -1 | 0.2 | -14 | 0.9 | 1.0% | 4
COc1ccc(CCNC(=O)Nc2cccs2)c(OC)c1 | -1 | 1.8 | -6 | ? | -1.1% | 0
CC(NC(=O)c1noc2c1CCCCC2)c1ccccc1 (stereo not given) | -5 | -1.5 | -12 | -2.2 | 0.7% | -24
S=C(NCCSCc1ccccc1Cl)Nc1ccccc1 | -10 | 0.0 | -11 | 0.8 | 13% | -14
CCN1CCN(S(=O)(=O)c2ccc(Br)s2)CC1 | 3 | -0.2 | -6 | -0.9 | 7.7%[38.3 µM] | 0
CCOC(=O)[C@H]1[C@H]2COc3ccc(C)cc3[C@@H]2N2C(=O)c3ccc(Cl)cc3NC(=O)[C@@]12C | -27 | 0.9 | -13 | -1.2 | 0.3% | -16

Of the compounds above, these contain bromine:
SMILES | CtBP-E1A inh | TRPML1 agonist | D2 potentiator | D2 agonist | PINK1 expr mod | Six1-Eya2 blk
CCOc1cc(/C=N/NC(=O)C(=O)NC2CC2)cc(Br)c1O | 1 | 3.5 | 5 | -3.1 | 2.6% | -2
COc1ccc2cc(Br)ccc2c1CC(=O)NC(C)C | -18 | 0.6 | -8 | -2.6 | 3.7% | 12
C/C(Cn1cnc([N+](=O)[O-])n1)=N\NC(=O)c1ccc(Br)cc1 | -1 | 0.2 | -14 | 0.9 | 1.0% | 4
CCN1CCN(S(=O)(=O)c2ccc(Br)s2)CC1 | 3 | -0.2 | -6 | -0.9 | 7.7%[38.3 µM] | 0

Given with tabs: part of the list above.
Molecule	CtBP-E1A inh	TRPML1 agonist	D2 potentiator	D2 agonist	PINK1 expr mod	Six1-Eya2 blk
O=C(NC1CCN(Cc2ccccc2)CC1)c1ccc2c(c1)OCCCO2	.	-0.4	-30	-3.8	1.8%	9
Cc1cccc(-n2ncc3c(NCCc4ccc(S(N)(=O)=O)cc4)ncnc32)c1	-5	-0.8	-7	-0.2	3.9%	-6

(more compounds)
SMILES | CtBP-E1A inh | TRPML1 agonist | D2 potentiator | D2 agonist | PINK1 expr mod | Six1-Eya2 blk
CCOC(=O)N1CCN(c2nc3ccc(C(=O)c4ccccc4)cc3n3cnnc23)CC1 | -9 | 3.8 | -8 | -4.0 | -0.3% | 7
CC1(C(=O)NC2CCCCC2)CCC(=O)N1Cc1cccnc1 (stereo not given) | -14 | 0.0 | -7 | -3.4 | 4.6% | 9
CN(C)c1nc(-c2cccnc2)nc(-c2ccc(Cl)cc2)c1C#N | 5 | 0.6 | -5 | -0.3 | 3.1% | 3
COc1cc2c(cc1OC)C(c1cccc([N+](=O)[O-])c1)NC(=O)C2 (stereo not given) | -8 | -0.1 | -13 | -1.7 | 0.4% | 2
CC(=O)N1CCN(c2ccc(NC(=O)C(c3ccccc3)c3ccccc3)cc2)CC1 | -15 | 0.8 | -3 | 0.4 | -0.3% | -2
CS(=O)(=O)Nc1ccc2c(c1)[C@H]1C[C@H](CC(=O)NCc3ccccc3)O[C@H](CO)[C@H]1O2 | 0 | . | . | 0.2 | 1.4% | -3
Cn1cccc1CC(=O)NNC(=S)Nc1ccc(F)cc1 | -8 | 0.4 | -2 | -1.3 | 1.1% | -1
COc1ccccc1C(=O)Nc1ccc(N2CCCCC2)cc1 | -25 | -1.7 | 6 | -6.1 | 3.1% | -20
CCCCOCCCNC(=O)c1ccc2c(c1)OCO2 | 1 | 1.1 | -2 | -0.2 | 0.3%[38.3 µM] | 4
Cc1csc(=O)n1CC(=O)OCC(=O)NCc1ccccc1 | -4 | 0.5 | -7 | 2.7 | 1.6% | 12
COC(=O)c1ccc(C)c(NC(=O)C(CCSC)NC(=O)c2cc(OC)c(OC)c(OC)c2)c1 (stereo not given) | 0 | 0.6 | -10 | -2.7 | 1.2% | -13
CC(=O)Nc1ccc(N2CCOCC2)c(Cl)c1 | 2 | -0.2 | -1 | -2.1 | 1.0% | 1
O=C(Nc1ccc(N2CCN(C(=O)c3cccs3)CC2)cc1)c1ccccc1F | -3 | 0.1 | 0 | 2.7 | 9.5% | -1
